GCN5L2 inh = qHTS Assay for Inhibitors of GCN5L2. 390,000 compounds, 0.21% hits. AID 504327, 2011. Potency, µM (titrated, usually from 58.9 µM), inactives show at the top dose activity change, negative = inhibition, usual class: inhibitors. GCN5L2 HAT assay, ThioGlo1 CoA-SH fluorescence
Target sequence (Q92830 whole entry, looked up): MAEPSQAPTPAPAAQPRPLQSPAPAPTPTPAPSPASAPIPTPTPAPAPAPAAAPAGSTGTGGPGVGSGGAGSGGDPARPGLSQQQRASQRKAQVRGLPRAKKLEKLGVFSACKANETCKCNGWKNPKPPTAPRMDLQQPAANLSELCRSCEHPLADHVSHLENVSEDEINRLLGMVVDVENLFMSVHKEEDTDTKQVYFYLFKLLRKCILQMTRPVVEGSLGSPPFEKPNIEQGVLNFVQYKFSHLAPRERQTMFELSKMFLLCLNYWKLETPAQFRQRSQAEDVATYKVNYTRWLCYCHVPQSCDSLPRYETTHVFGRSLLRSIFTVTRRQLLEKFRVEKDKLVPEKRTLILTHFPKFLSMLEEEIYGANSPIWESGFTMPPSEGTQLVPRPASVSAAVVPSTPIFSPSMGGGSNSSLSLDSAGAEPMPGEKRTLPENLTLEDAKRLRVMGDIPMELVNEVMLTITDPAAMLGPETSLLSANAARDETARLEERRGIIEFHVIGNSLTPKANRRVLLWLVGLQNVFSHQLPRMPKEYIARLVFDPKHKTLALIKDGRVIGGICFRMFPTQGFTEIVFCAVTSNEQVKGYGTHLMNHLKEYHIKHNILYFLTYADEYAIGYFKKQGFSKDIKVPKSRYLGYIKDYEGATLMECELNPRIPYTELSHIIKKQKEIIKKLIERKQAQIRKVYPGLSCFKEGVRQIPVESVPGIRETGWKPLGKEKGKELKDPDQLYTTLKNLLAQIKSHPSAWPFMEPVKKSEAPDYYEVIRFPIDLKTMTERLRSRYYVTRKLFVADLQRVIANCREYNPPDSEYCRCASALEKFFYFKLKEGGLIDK
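GCN5L2 (20nM final) in 50mM HEPES, 0.1mM EDTA pH 7.5, 0.01% Tween-20 was preincubated 15 min at room temperature with compound, then given ThioGlo1 (50uM), H3(1-25) peptide (75uM) and acetyl-CoA (70uM); CoA-thiol fluorescence (Ex340/Em540) was read at 0 and 20 min.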
TDP1 cell CPT = qHTS for Inhibitors of human tyrosyl-DNA phosphodiesterase 1 (TDP1): qHTS in cells in presence of CPT | chicken DT40 Tdp1-/-;hTDP1 cells + 20 nM CPT, ATP luminescence, 48 h | Potency, µM (top dose mostly 46.2 µM), inactives show top-dose activity change, negative = growth inhibition, most hits filed as inhibitors | 420,000 compounds, 12% hits | AID 686979, 2013; also: nearly all actives have a fitted effect of over 55% in size
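Chicken DT40 Tdp1-/- cells complemented with human TDP1, 400 cells/well, exposed to compounds plus 20 nM camptothecin for at least 48 h at 37 C; viability read as ATP content by CellTiter-Glo luminescence.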
An asterisk follows results filed as active; ? = inconclusive; . = not tested or not shown; & = joins results of further samples. Calls follow the shape of the dose curve; as a rule, active = well fitted curve in the direction sought with a large enough effect; inconclusive = small, poorly fitted or top-dose-only effect, or another doubt; inactive = no such curve, though single readings can be large; an effect the other way counts as inactive or inconclusive. % is scaled to controls: 0 for no effect and ±100 for the full control effect; potency is read from the fitted curve at half-maximal effect. Some of the compounds tested; most or all hits stand in other tables.

The line under a structure holds: TDP1 cell CPT, GCN5L2 inh
Cc1ccccc1NC(=O)NC(N)=O
    -3.2%, 3.0%
O=C(Nc1cccc(F)c1)C1CCCN(S(=O)(=O)c2ccc(-n3cnnn3)cc2)C1 (stereo unspecified)
    -2.6%, -4.5%
CCOCCCNC(=S)Nc1cc(OCC)c(NC(=O)c2ccco2)cc1OCC
    -1.6%, -3.4%
O=C(Oc1cccc(C(=S)N2CCOCC2)c1)c1cccc(Cl)c1
    2.8%, ?
Cn1c(SCC(=O)N2CCCC2=O)nc2ccccc2c1=O
    -9.6%, -0.4%
COc1ccc(NC(=O)NCCc2ccc(Cl)cc2)cc1OC
    -1.1%, 0.7%
COc1ccc(C(=O)C2CC2)cc1
    7.1%, .
CCN(c1ccc(OC)cc1)S(=O)(=O)c1nnc(NC(=O)c2ccc(C)cc2)s1
    ?, -5.4%
Cc1onc(-c2ccccc2Cl)c1C(=O)Nc1ccc(S(=O)(=O)Nc2nccs2)cc1
    2.2%, 3.5%
COc1ccc(C(=O)Nc2ccc(C)cn2)cc1S(=O)(=O)N1CCCc2ccccc21
    ?, -9.5%
COc1ccc(C(=O)NCC(=O)NCC(=O)OCc2ccc(Br)cc2)cc1
    -20.2%, -6.6%
CCOc1ccc(NC(=O)N2CCN(CC)CC2)cc1
    8.1%, -0.9%
COC(=O)c1cc(-c2ccc(Br)cc2)c2c(=O)n(C)c(=O)n(C)c2n1
    -36.4%, 3.0%
COC(=O)CSc1nc2nc(C)c(Br)cc2[nH]1
    -9.1%, 0.8%
Cc1cccc(NC(=O)C2CCN(C(=O)c3ccc(F)cc3)CC2)n1
    5.8%, -2.2%

Five entries from above, tab-delimited.
mol	TDP1 cell CPT	GCN5L2 inh
COc1ccc(C(=O)Nc2ccc(C)cn2)cc1S(=O)(=O)N1CCCc2ccccc21	?	-9.5%
COc1ccc(C(=O)C2CC2)cc1	7.1%	.
COC(=O)CSc1nc2nc(C)c(Br)cc2[nH]1	-9.1%	0.8%
Cn1c(SCC(=O)N2CCCC2=O)nc2ccccc2c1=O	-9.6%	-0.4%
CCOc1ccc(NC(=O)N2CCN(CC)CC2)cc1	8.1%	-0.9%

Next entries
The line under a structure holds: TDP1 cell CPT, GCN5L2 inh
O=C(COc1ccc(/C=N/NS(=O)(=O)c2ccccc2)cc1)Nc1ccccc1
    -5.2%, -2.8%
Cc1nn(C)c(C)c1NC(=O)Nc1ccc(Cl)c(Cl)c1
    -20.2%, -0.6%
Cc1ccc(OCC(=O)NN=C2c3ccccc3-c3ccccc32)cc1
    ?, -5.1%
CCc1c(C(=O)Nc2ccc(OC)c(Cl)c2)[nH]c(C)c1C(C)=O
    ?, -4.3%
CCN(CC)C(=O)c1ncn(C)c1C(=O)N(CC)CC
    -16.0%, -6.0%
CC(=O)N1N=C(c2ccccc2)OC1(C)CC(=O)Nc1ccccc1 (stereo unspecified)
    -17.1%, -3.0%
O=C(OC(C(=O)NCc1ccccc1)c1ccccc1F)c1ccco1 (stereo unspecified)
    2.2%, 0.2%
Cc1ccc(C)c(NC(=S)NNC(=O)c2sccc2C)c1
    -8.6%, 1.6%
N#Cc1cc(C#N)c(SCC(=O)NCC2CCCO2)nc1N (stereo unspecified)
    9.2%, -1.6%
O=C(OCc1nc2ccsc2c(=O)[nH]1)c1cc(Br)c(Br)s1
    3.2%, -3.0%
OC(CNCCC(c1ccccc1)c1ccccc1)COc1ccccc1 (stereo unspecified)
    13µM*, -0.4%
N/C(=N\OC(=O)Cc1ccccc1[N+](=O)[O-])c1ccncc1
    -2.1%, 0.4%
COc1ccccc1C(=O)COC(=O)CSCC(=O)Nc1cc(C)on1
    -16.7%, -5.4%
NNC(=O)C(=O)/C=C1\NC2(CCCC2)Cc2ccccc21
    -0.2%, -3.5%
Cc1cc(NC(=O)COC(=O)Cn2c(C)csc2=O)ccc1Br
    -16.6%, -9.2%
CCOC(=O)CSc1ncnc2c1sc1nc(N3CCOCC3)c3c(c12)CCCC3
    -8.4%, -5.6%
CCOC(=O)c1ccc2c(c1)nc(SCc1cn3ccsc3n1)n2CC
    ?, -3.4%
Cc1ccc(S(=O)(=O)N2CCN(C(=O)Cc3c(F)cccc3Cl)CC2)cc1
    -7.5%, 0.8%
COc1cccc(/C=N/Nc2nc3ccccc3n3cnnc23)c1
    -14.6%, -5.9%
CCOc1ccccc1NC(=O)c1sc2nc(C)nc(N3CCOCC3)c2c1C
    4.8%, -5.6%
CCCCCCCCCCCCOC(=O)C[N+](C)(C)C
    6.1%, -10.7%
O=S(=O)(Nc1nc2ccccc2s1)c1ccc(Br)s1
    ?, -20.6%
C=C(C)C(=O)Nc1nnc(-c2cccs2)s1
    -5.0%, 3.3%
COc1ccccc1OCC(O)CO (stereo unspecified)
    2.1%, 11.4%&0.2%
COc1cccc(NC(=O)CSC2=Nc3ccccc3C3=NC(CC(=O)NC4CCCCC4)C(=O)N23)c1 (stereo unspecified)
    ?, -6.2%
CCCCn1c(N)c(N(CC(C)C)C(=O)CN(C)S(=O)(=O)c2ccc(F)cc2)c(=O)[nH]c1=O
    12.9%, 2.1%
CC1CCCN(C(=S)Nc2ccc(S(=O)(=O)N3CCCCC3)cc2)C1 (stereo unspecified)
    ?, -1.8%
O=C(Nc1ccc(S(=O)(=O)N2CCCCC2)cc1)c1ccc(F)cc1
    ?, -4.9%
Cc1nc(NC(=O)/C=C/c2ccccc2)sc1C(=O)Nc1ccc(Cl)cc1
    ?, -6.2%
O=C(COC(=O)CNC(=O)c1ccccc1F)Nc1ccc(Cl)cn1
    0.0%, 0.1%
N#Cc1ccc(-c2csc(NC(=O)c3ccc(N4C(=O)CCC4=O)cc3)n2)cc1
    -19.1%, 1.5%
CCN1C(=O)C(CC(=O)N2CCN(C(c3ccccc3)c3ccccc3)CC2)N(CC)C1=O (stereo unspecified)
    -27.8%, -3.8%
CC(=O)c1c(C(C)=O)c(C)n(-c2ccc(N)c(C)c2)c1C
    -26.0%, -7.6%
COc1ccccc1NC(=O)CSc1nnnn1C
    -3.6%, -12.3%
CCCOc1ccc(C(=O)C(CN2CCCC2)c2ccccc2)cc1 (stereo unspecified)
    3.66µM*, -4.3%
N/C(=N\OC(=O)Nc1cccc(C(F)(F)F)c1)c1ccno1
    1.6%, -0.7%
CCC(=O)Nc1nc(C)nc(C)c1C(C)=O
    2.3%, -6.7%
COC(=O)C(C(=O)OC)c1ccc(N)cc1
    7.0%, -4.7%
O=C1CC(c2ccco2)CC(O)=C1C=NCC1NCCc2ccccc21 (stereo unspecified)
    -16.9%, -0.2%
CCOc1ccc(-c2nc3n(c(=O)c2C#N)CCCS3)cc1
    -2.5%, -19.1%
CC(=O)Nc1ccc(NC(=O)c2sc3nc4c(c(-c5ccc(C)cc5)c3c2N)CCC4)cc1
    -1.3%, -4.6%
COc1ccccc1-c1ccc(=O)n(CC(=O)NCc2ccco2)n1
    -12.3%, -18.2%
CCCCn1c(N)c(N(CC(C)C)C(=O)c2cc(C)nc3ccccc23)c(=O)[nH]c1=O
    13.9%, -2.4%
CC(C)C1N=C2c3ccccc3N=C(SCC(=O)NCCc3ccc(S(N)(=O)=O)cc3)N2C1=O (stereo unspecified)
    -10.2%, -3.0%
CC1=C(C(=O)Nc2ccc(Cl)cc2)C(c2ccco2)NC(=O)N1 (stereo unspecified)
    2.5%, -3.5%
O=C1NC2(CCCCCC2)C(=O)N1Cc1c(F)cccc1Cl
    -0.7%, -5.8%
CCCC(=O)O/N=C(\c1ccccc1)c1ccncc1
    -5.3%, -5.4%
CCOCCCNC(=O)CCSc1ccc(C)cc1
    -11.5%, -1.5%
Cc1ccccc1-n1cc(CNC(=O)C2CCC(=O)N(C3CC3)C2)cn1 (stereo unspecified)
    -20.8%, -6.5%
COc1ccc([N+](=O)[O-])cc1NCc1ccccc1C
    -20.0%, -6.2%
CCOC(=O)N1CCC(NC(=O)CCS(=O)(=O)c2ccc3c(c2)CCN3C(C)=O)CC1
    -4.7%, -2.7%
CCN(CC(=O)Nc1cccc(S(=O)(=O)N(C)c2ccccc2)c1)Cc1cccs1
    ?, -14.6%
Cn1c(N2CCCCC2)nc2c1c(=O)[nH]c(=O)n2C
    -2.3%, -3.2%
CC(=O)c1ccc(OCCCC(=O)Nc2ccc(C)c(S(=O)(=O)N3CCOCC3)c2)cc1
    ?, -2.2%
CC(CN1CCN(Cc2ccccc2)CC1)c1ccccc1 (stereo unspecified)
    -9.0%, -17.0%
C=CCN(C(=O)CSc1nc2[nH]ncc2c(=O)n1-c1ccccc1OC)c1ccccc1
    -21.9%, 0.7%
CCc1nnc(NC(=O)c2ccc3c(=O)n4c(nc3c2)CCCCC4)s1
    1.2%, -14.4%
COc1ccc(/C=C/C(=O)Nc2cccc(S(=O)(=O)N3CCCC3)c2)cc1OC
    ?, -15.8%
CCCn1cc(CN2CCc3ccc(NC(=O)C4CCCO4)cc3C2)c(C)n1 (stereo unspecified)
    -6.8%, -26.5%
O=C(Nc1nnc(C2CCCO2)s1)c1cccs1 (stereo unspecified)
    -9.0%, 4.2%

The list continues:
The line under a structure holds: TDP1 cell CPT, GCN5L2 inh
Cc1nc(C)c(C(=O)C2=C(O)C(=O)N(CCN3CCOCC3)C2c2cccs2)s1 (stereo unspecified)
    -3.4%, 2.5%
COc1ccc(CNC(=O)/C(C#N)=C/c2cccc(OC)c2OC)cc1
    ?, -13.4%
CC1(C)NC(=O)N(CCCCSc2ccc(Cl)cc2)C1=O
    ?, -9.0%
COc1ccc(CCNC(=O)CSc2nnc3ccc(-c4ccccn4)nn23)cc1
    -24.7%, -5.3%
CN(C)c1ccc(/C=C2\N=C(C(C)(C)C)OC2=O)cc1
    -11.8%, -8.0%
CCc1nn(CC(=O)Nc2c(C)cc(C)cc2C)c(=O)c2cc3sccc3n12
    -4.3%, -0.4%
O=C(O)c1ccc(NC(=O)c2cccc(S(=O)(=O)Nc3ccc(C(=O)O)cc3)c2)cc1
    8.1%, -1.8%
CC1CCN(S(=O)(=O)c2ccc3c(c2)c(=O)c(C(=O)NC2CCCC2)cn3C)CC1
    ?, 0.7%
CC(C)(C)n1nnnc1C(c1ccc(Cl)cc1)N1CCCc2ccccc21 (stereo unspecified)
    ?, -21.4%
Cc1ccc(OCC(=O)OCC(=O)Nc2ccc3c(c2)OCO3)cc1C
    -8.5%, 0.8%
COc1c(Br)cc2c(C)c(C(=O)N3CCOCC3)oc2c1Br
    20.6µM*, -16.9%
O=C(Cn1nc(-c2ccccc2)ccc1=O)N1CCCCC1
    8.9%, 2.8%
O=C(CN1C(=O)NC2NC(=O)NC21)N/N=C/c1ccc(F)cc1 (stereo unspecified)
    1.1%, -13.0%
COc1cc(C(=O)NCC(=O)NCCN2C(=O)S/C(=C\c3ccccc3Cl)C2=O)cc(OC)c1OC
    18.4µM*, -1.1%
COc1ccc(C(=O)c2oc3ccccc3c2NC(=O)c2cccc(OC)c2)cc1
    -13.5%, -8.4%
CCN(CC)S(=O)(=O)c1ccc(N2CCCC2)c(NC(=O)C2CCCCC2)c1
    ?, 16.1%
O=C(CCC(=O)OCC(=O)c1ccc(Cl)cc1)NC1CCCCC1
    -3.4%, -6.4%
COc1ccc(CCN2C(=O)CN(Cc3ccccc3)CC2=O)cc1OC
    4.1%, -0.5%
Cc1ccc(C)c(CSc2nnc(-c3cccnc3)o2)c1
    ?, 0.3%
CC(C)(C)c1cc(C(=O)N/N=C/c2ccc([N+](=O)[O-])s2)n[nH]1
    9.2µM*, -11.7%
CCC1(CC)Cc2ccccc2-c2nc(CN3CCOCC3)[nH]c(=O)c21
    ?, -0.8%
C=CCN1CCN(C(=O)CCCc2ccccc2)CC1
    -10.7%, -7.9%
O=C(COC(=O)c1cncc(Br)c1)Nc1ccc(F)c(F)c1F
    -20.7%, -5.2%
COc1ccc(-n2c(C)ccc2C)c([N+](=O)[O-])c1
    6.4%, 2.8%
CCCN1CCN(C(=O)Cn2cccc2C(=O)c2ccccc2)CC1
    -0.9%, 1.6%
N#CC(CC(=O)c1ccc(F)cc1)c1ccc2c(c1)OCO2 (stereo unspecified)
    2.0%, 1.2%
CCCC(=O)Nc1c2c(nn1-c1ccc(C)cc1)CS(=O)(=O)C2
    5.6%, -2.5%
CCC1CCCCN1S(=O)(=O)c1ccc(C(=O)Nc2sc3c(c2C(N)=O)CCC3)cc1 (stereo unspecified)
    ?, -25.9%
O=C(Nc1cccc(F)c1)N1CC=C(n2c(=O)[nH]c3ccccc32)CC1
    ?, -11.1%
CN1CCC(=O)N(CCSc2ccc(Br)cc2)CC1
    -12.7%, 24.7%
CCNc1sc(C(=O)c2cccs2)c(N)c1C#N
    -11.0%, -22.5%
O=C(O)c1cccc(N2C(=O)CSC2=S)c1
    8.4%, -0.1%
